# A1 apoptosis 2: A1 inhibitors via caspase activation, primary screen, cell-based, luminescence, HTS, two replicates. MEF A1-2A-BIM cells, caspase-Glo luminescence, 3 h; percent of clofoctol response, DMSO zero. caspase activation, % (no concentration beside the values). 24,000 tested, under 10 active; in the data active = caspase activation above about 5.9%; inconclusive = no clear call, values can overlap the other calls; inactive = below about 2.2%;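 note: wells of about 30 µL received 50 nL stock; the first replicate is given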
#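 system = A1-2A-BIM-expressing MEF cells | quantity = 2500 MEF cells/well | dosing = 50 nL compound per well, pinned | schedule = overnight cell settling, then 3 h compound exposure, 37 °C | signal = luminescence from DEVD-luciferin Caspase-Glo reagent, 1:1 in 50 mM HEPES, 1 h RT | read-out = Caspase-3/7 activation, seen as rise in luminescence signal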
# The depositor's hits bear a star; ? = inconclusive; & = joins results of further samples. This is a subset; the hit share may differ from the screen's.
SMILES,A1 apoptosis 2
C[C@H](CO)N1C[C@H](C)[C@H](CN(C)C(=O)c2ccccc2)OCCCC[C@H](C)Oc2ccc(NC(=O)Nc3ccc(C(F)(F)F)cc3)cc2C1=O,-0.1
C[C@H](CO)N1C[C@H](C)[C@@H](CN(C)C(=O)Nc2ccccc2)Oc2c(NS(C)(=O)=O)cccc2C1=O,-0.7
CC(C)NC(=O)N(C)C[C@@H]1Oc2ccc(NC(=O)NC3CCCCC3)cc2CC(=O)N([C@H](C)CO)C[C@H]1C,1.5
C[C@@H]1CN([C@@H](C)CO)C(=O)Cc2cc(N(C)C)ccc2O[C@@H]1CN(C)S(=O)(=O)c1cn(C)cn1,-0.2
Cc1noc(C)c1NC(=O)N(C)C[C@H]1Oc2ccc(NC(=O)NC(C)C)cc2C(=O)N([C@H](C)CO)C[C@H]1C,-1.1
Cc1noc(C)c1NC(=O)N(C)C[C@H]1Oc2c(NC(=O)Nc3ccc(C(F)(F)F)cc3)cccc2C(=O)N([C@H](C)CO)C[C@@H]1C,-1.1
Cc1ccc(S(=O)(=O)Nc2ccc3c(c2)C(=O)N([C@H](C)CO)C[C@@H](C)[C@@H](CN(C)C(=O)c2ccccc2)OCCCC[C@H](C)O3)cc1,-1.6
Cc1ccc(S(=O)(=O)N(C)C[C@@H]2OCCCC[C@H](C)Oc3ccc(NC(=O)CCC(F)(F)F)cc3C(=O)N([C@H](C)CO)C[C@H]2C)cc1,-0.7
O=C1O[C@@H](c2ccccc2)[C@@H](c2ccccc2)N2[C@@H](c3ccccc3OCCO)[C@]3(C(=O)Nc4ccc(C#CC5=CCCCC5)cc43)[C@@H](C(=O)N3CCCCCCC3)[C@H]12,-0.2
C[C@@H]1CCCCO[C@@H](CN(C)C(=O)Cc2ccccc2)[C@H](C)CN([C@H](C)CO)C(=O)c2cc(NS(C)(=O)=O)ccc2O1,0.6
C[C@@H]1CN([C@H](C)CO)C(=O)c2cccc(N(C)C)c2O[C@@H]1CN(C)Cc1ccc(C(=O)O)cc1,0.2
C[C@@H]1CCCCO[C@@H](CN(C)S(=O)(=O)c2cn(C)cn2)[C@H](C)CN([C@H](C)CO)C(=O)c2cc(NS(=O)(=O)c3cn(C)cn3)ccc2O1,?
Cc1noc(C)c1S(=O)(=O)Nc1ccc2c(c1)C(=O)N([C@@H](C)CO)C[C@@H](C)[C@H](CN(C)Cc1ccc3c(c1)OCO3)OCCCC[C@@H](C)O2,0.5
C[C@H]1CCCCO[C@@H](CN(C)C(=O)c2ccncc2)[C@@H](C)CN([C@@H](C)CO)C(=O)c2cc(NC(=O)c3ccccc3)ccc2O1,-1.1
CC(C)NC(=O)Nc1cccc2c1O[C@H](CN(C)C(=O)NC(C)C)[C@@H](C)CN([C@@H](C)CO)C2=O,-0.1
C[C@@H]1CN([C@H](C)CO)C(=O)Cc2cc(NC(=O)Nc3ccc(C(F)(F)F)cc3)ccc2O[C@@H]1CN(C)S(=O)(=O)c1ccc(Cl)cc1,0.1
C[C@@H]1CCCCO[C@H](CN(C)S(=O)(=O)c2ccc(Cl)cc2)[C@H](C)CN([C@H](C)CO)C(=O)c2cc(NS(=O)(=O)c3ccc(F)cc3)ccc2O1,-0.7
O=C(CCCCCCC(=O)Nc1ccccc1O)N/N=C/c1ccc(-n2ccnc2)cc1,0.4
COc1ccc(S(=O)(=O)Nc2cccc3c2O[C@H](CN(C)S(=O)(=O)c2c(C)noc2C)[C@@H](C)CN([C@H](C)CO)C3=O)cc1,1.3
C[C@H](CO)N1C[C@H](C)[C@H](CN(C)C(=O)OCc2ccccc2)OCc2cnnn2CCCC1=O,-0.3
C[C@H](CO)N1C[C@H](C)[C@@H](CN(C)S(=O)(=O)c2ccccc2)Oc2ccc(NC(=O)CCCN(C)C)cc2CC1=O,-1.3
Cc1noc(C)c1S(=O)(=O)N(C)C[C@H]1OCCCC[C@H](C)Oc2ccc(NS(=O)(=O)c3ccccc3)cc2C(=O)N([C@@H](C)CO)C[C@@H]1C,-0.8
Cc1ccc(S(=O)(=O)Nc2ccc3c(c2)CC(=O)N([C@@H](C)CO)C[C@H](C)[C@@H](CN(C)S(=O)(=O)c2c(C)noc2C)O3)cc1,0.4
C[C@H](CO)N1C[C@H](C)[C@H](CN(C)Cc2ccc3c(c2)OCO3)Oc2c(NS(=O)(=O)c3ccc(Cl)cc3)cccc2C1=O,-0.7
C[C@@H]1CN([C@H](C)CO)C(=O)Cc2cc(NC(=O)C3CCCCC3)ccc2O[C@@H]1CN(C)C,1.2
COc1ccc(NC(=O)N(C)C[C@H]2OCCCC[C@H](C)Oc3ccc(NC(=O)Cc4ccccc4)cc3C(=O)N([C@H](C)CO)C[C@@H]2C)cc1,-0.3
C[C@@H]1CCCCO[C@H](CN(C)C(=O)C2CCCCC2)[C@@H](C)CN([C@@H](C)CO)C(=O)c2cc(NC(=O)Nc3cccc4ccccc34)ccc2O1,0.9
C[C@H](CO)N1C[C@H](C)[C@@H](CN(C)C(=O)CCCN(C)C)OCCCC[C@H](C)Oc2ccc(NC(=O)Nc3ccc(C(F)(F)F)cc3)cc2C1=O,0.0
C[C@@H]1CN([C@H](C)CO)C(=O)c2cc(NS(=O)(=O)c3cccs3)ccc2O[C@@H]1CN(C)C(=O)Nc1ccc(F)cc1,0.2
CC(C)NC(=O)Nc1ccc2c(c1)C(=O)N([C@H](C)CO)C[C@H](C)[C@H](CN(C)S(=O)(=O)c1ccc(F)cc1)OCCCC[C@@H](C)O2,1.0
C[C@@H]1CN([C@H](C)CO)C(=O)Cc2cc(NC(=O)Cc3ccccc3)ccc2O[C@H]1CN(C)C(=O)NC1CCCCC1,1.0
COc1ccc(S(=O)(=O)Nc2ccc3c(c2)C(=O)N([C@H](C)CO)C[C@H](C)[C@@H](CN(C)S(=O)(=O)c2c(C)noc2C)OCCCC[C@H](C)O3)cc1,0.3
COCCOC(=O)N1C(=O)[C@@]2(c3ccccc31)[C@H](C(N)=O)[C@H]1C(=O)O[C@H](c3ccccc3)[C@H](c3ccccc3)N1[C@@H]2c1ccccc1OCCO,-1.1
N#Cc1ccc(/C=N/NC(=O)CCCCC(=O)NO)cc1,0.0
Cc1noc(C)c1S(=O)(=O)Nc1ccc2c(c1)C(=O)N([C@@H](C)CO)C[C@H](C)[C@@H](CN(C)CC1CC1)OCCCC[C@@H](C)O2,-0.7
C[C@H]1CCCCO[C@H](CN(C)C(=O)CCC(F)(F)F)[C@@H](C)CN([C@@H](C)CO)C(=O)c2cc(NC(=O)c3ccncc3)ccc2O1,-0.2
Cc1ccc(S(=O)(=O)Nc2ccc3c(c2)C(=O)N([C@@H](C)CO)C[C@@H](C)[C@@H](CN(C)C)O3)cc1,1.0
C[C@H](CO)N1C[C@H](C)[C@@H](CN(C)S(=O)(=O)c2cn(C)cn2)Oc2c(NC(=O)C3CCOCC3)cccc2C1=O,-0.3
C[C@@H]1CN([C@@H](C)CO)C(=O)c2cccc(NC(=O)C3CCOCC3)c2O[C@@H]1CN(C)Cc1ccc(Oc2ccccc2)cc1,0.7
C[C@H](CO)N1C[C@H](C)[C@H](CN(C)C)OCCCC[C@H](C)Oc2ccc(NS(C)(=O)=O)cc2C1=O,1.3

# Two successive entries already listed:
SMILES,A1 apoptosis 2
C[C@@H]1CN([C@@H](C)CO)C(=O)c2cccc(NC(=O)C3CCOCC3)c2O[C@@H]1CN(C)Cc1ccc(Oc2ccccc2)cc1,0.7
C[C@H](CO)N1C[C@H](C)[C@H](CN(C)C)OCCCC[C@H](C)Oc2ccc(NS(C)(=O)=O)cc2C1=O,1.3

# Random excerpt: 7 compounds from above.
SMILES,A1 apoptosis 2
C[C@H]1CCCCO[C@H](CN(C)C(=O)CCC(F)(F)F)[C@@H](C)CN([C@@H](C)CO)C(=O)c2cc(NC(=O)c3ccncc3)ccc2O1,-0.2
C[C@@H]1CN([C@H](C)CO)C(=O)Cc2cc(NC(=O)Cc3ccccc3)ccc2O[C@H]1CN(C)C(=O)NC1CCCCC1,1.0
Cc1ccc(S(=O)(=O)Nc2ccc3c(c2)CC(=O)N([C@@H](C)CO)C[C@H](C)[C@@H](CN(C)S(=O)(=O)c2c(C)noc2C)O3)cc1,0.4
C[C@@H]1CCCCO[C@H](CN(C)C(=O)C2CCCCC2)[C@@H](C)CN([C@@H](C)CO)C(=O)c2cc(NC(=O)Nc3cccc4ccccc34)ccc2O1,0.9
CC(C)NC(=O)Nc1ccc2c(c1)C(=O)N([C@H](C)CO)C[C@H](C)[C@H](CN(C)S(=O)(=O)c1ccc(F)cc1)OCCCC[C@@H](C)O2,1.0
C[C@H](CO)N1C[C@H](C)[C@@H](CN(C)S(=O)(=O)c2ccccc2)Oc2ccc(NC(=O)CCCN(C)C)cc2CC1=O,-1.3
N#Cc1ccc(/C=N/NC(=O)CCCCC(=O)NO)cc1,0.0

# (further entries)
SMILES,A1 apoptosis 2
C[C@@H]1CN([C@@H](C)CO)C(=O)Cc2cc(NC(=O)Nc3ccc(F)cc3)ccc2O[C@@H]1CN(C)C(=O)Nc1ccc(F)cc1,-0.5
C[C@@H]1CN([C@H](C)CO)C(=O)Cc2cc(NC(=O)Cc3ccccc3)ccc2O[C@@H]1CN(C)Cc1ccc(C(F)(F)F)cc1,-1.5
CC(C)(C)[C@@H]1C=C(C(=O)N2CCN(Cc3ccccc3)CC2)O[C@H](OCCCCO)C1,0.2
C[C@@H]1CCCCO[C@@H](CN(C)Cc2ccccc2)[C@@H](C)CN([C@@H](C)CO)C(=O)c2cc(NC(=O)C3CCCCC3)ccc2O1,0.1
C[C@@H]1CN([C@H](C)CO)C(=O)Cc2cc(NC(=O)NC3CCCCC3)ccc2O[C@@H]1CN(C)S(=O)(=O)c1ccccc1,-0.2
C[C@@H]1CN([C@@H](C)CO)C(=O)c2cc(NS(=O)(=O)c3ccc(F)cc3)ccc2O[C@@H]1CN(C)S(=O)(=O)c1ccc(Cl)cc1,0.4
O=C(N/N=C/c1cc(Br)cs1)c1ccccc1O,-5.6
C[C@H](CO)N1C[C@H](C)[C@@H](CN(C)Cc2ccc(-c3ccccc3)cc2)Oc2ccc(NC(=O)Nc3ccc(F)cc3)cc2CC1=O,0.2
C[C@H](CO)N1C[C@H](C)[C@H](CN(C)Cc2ccccc2)Oc2ccc(NC(=O)Nc3ccccc3)cc2C1=O,-0.5
Cc1noc(C)c1S(=O)(=O)Nc1ccc2c(c1)C(=O)N([C@H](C)CO)C[C@H](C)[C@@H](CN(C)S(C)(=O)=O)OCCCC[C@@H](C)O2,0.2
C[C@@H]1CN([C@@H](C)CO)C(=O)CCCn2cc(nn2)CO[C@H]1CN(C)S(=O)(=O)c1cccs1,0.4
COc1ccc(CN(C)C[C@H]2Oc3ccc(NC(=O)CCC(F)(F)F)cc3C(=O)N([C@H](C)CO)C[C@H]2C)cc1,-0.4
COc1ccc(S(=O)(=O)Nc2cccc3c2O[C@H](CN(C)S(=O)(=O)c2ccc(Cl)cc2)[C@H](C)CN([C@H](C)CO)C3=O)cc1,-0.8
C[C@H](CO)N1C[C@H](C)[C@H](CN(C)C(=O)Nc2ccc(F)cc2)OCCCC[C@H](C)Oc2ccc(NC(=O)Nc3cccc4ccccc34)cc2C1=O,-0.5
C[C@@H]1CCCCO[C@H](CN(C)C(=O)C2CCCCC2)[C@@H](C)CN([C@@H](C)CO)C(=O)c2cc(NC(=O)c3ccncc3)ccc2O1,-0.2
C[C@@H]1CN([C@H](C)CO)C(=O)CCCn2nncc2CO[C@H]1CN(C)S(=O)(=O)c1ccc(Cl)cc1,-0.5
C[C@@H]1CN([C@@H](C)CO)C(=O)c2cc(NS(C)(=O)=O)ccc2O[C@H]1CN(C)S(=O)(=O)c1ccccc1,-0.3
COc1ccc(NC(=O)N(C)C[C@H]2Oc3ccc(NC(=O)Nc4ccc(C(F)(F)F)cc4)cc3C(=O)N([C@@H](C)CO)C[C@H]2C)cc1,0.8
C[C@H]1CCCCO[C@@H](CN(C)Cc2ccc(C(=O)O)cc2)[C@@H](C)CN([C@@H](C)CO)C(=O)c2cc(NS(C)(=O)=O)ccc2O1,0.7
COc1ccc(NC(=O)N(C)C[C@@H]2Oc3ccc(NS(C)(=O)=O)cc3CC(=O)N([C@@H](C)CO)C[C@H]2C)cc1,-0.2
C[C@H](CO)N1C[C@H](C)[C@H](CN(C)C(=O)Nc2cccc3ccccc23)Oc2c(NC(=O)NC3CCCCC3)cccc2C1=O,-1.3
CC(C)NC(=O)Nc1ccc2c(c1)C(=O)N([C@H](C)CO)C[C@@H](C)[C@H](CN(C)CC1CCCCC1)O2,-1.3
COc1cc2c(cc1OC)CN(C(=O)[C@@H]1[C@H]3C(=O)O[C@H](c4ccccc4)[C@H](c4ccccc4)N3[C@H](c3ccccc3OCCO)[C@@]13C(=O)Nc1ccc(C#CC4(O)CCCCCC4)cc13)CC2,-1.0
O=C(C1=C[C@@H](c2csc3ccccc23)C[C@@H](OCc2ccc(CO)cc2)O1)N1CCN(Cc2ccc3c(c2)OCO3)CC1,-0.6&-0.4
Cc1noc(C)c1NC(=O)Nc1ccc2c(c1)C(=O)N([C@@H](C)CO)C[C@@H](C)[C@@H](CN(C)S(=O)(=O)c1ccccc1)OCCCC[C@H](C)O2,-1.1
COc1ccc(CN(C)C[C@H]2Oc3ccc(NS(=O)(=O)c4ccc(OC)cc4)cc3CC(=O)N([C@H](C)CO)C[C@H]2C)cc1,-0.3
COc1ccc(CN(C)C[C@H]2Oc3ccc(NS(=O)(=O)c4ccc(C)cc4)cc3C(=O)N([C@H](C)CO)C[C@H]2C)cc1,1.2
COc1ccc(NC(=O)N(C)C[C@H]2OCCCC[C@@H](C)Oc3ccc(NC(=O)Nc4ccc5c(c4)OCO5)cc3C(=O)N([C@@H](C)CO)C[C@H]2C)cc1,0.2
Cc1noc(C)c1S(=O)(=O)Nc1cccc2c1O[C@H](CN(C)S(=O)(=O)c1cn(C)cn1)[C@H](C)CN([C@@H](C)CO)C2=O,0.2
COC(=O)CCCCCCC(=O)N/N=C/c1cccc(Br)c1,-0.7
